# Yeast UUG start: alters start codon recognition fidelity in yeast; 350,000 tested, 0.13% active; activity score, % at 18.7 µM; AID 602363; S. cerevisiae UUG-firefly luciferase reporter, luminescence/redox ratio;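 active = replicate mean at a twofold rise or more, about +100% in these data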;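 also: firefly luciferase made from a UUG start codon reports start codon fidelity; reporter light over untreated wells divided by growth signal over untreated wells; some hits fall short of that in this replicate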
# PABP polyA inh: blocks human PABP binding to poly(A) RNA. P11940. fluorescence polarization. inhibition, % at 35 µM. 290,000 tested, 1% active;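 active = 50% or more with normal probe brightness, or confirmed in later tests; inconclusive = above 50% with abnormal brightness, or retests that disagree; inactive = below 50% or failed in later tests; about a fifth of its hits are not listed in these tables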;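 also: calls also rest on retests at 20 µM and on dose response follow-up; controls were probe without protein and protein plus probe with vehicle; some compounds called inactive have numbers as strong as hits; many hits fall short of the cut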
# Target sequence (P11940 whole entry, looked up): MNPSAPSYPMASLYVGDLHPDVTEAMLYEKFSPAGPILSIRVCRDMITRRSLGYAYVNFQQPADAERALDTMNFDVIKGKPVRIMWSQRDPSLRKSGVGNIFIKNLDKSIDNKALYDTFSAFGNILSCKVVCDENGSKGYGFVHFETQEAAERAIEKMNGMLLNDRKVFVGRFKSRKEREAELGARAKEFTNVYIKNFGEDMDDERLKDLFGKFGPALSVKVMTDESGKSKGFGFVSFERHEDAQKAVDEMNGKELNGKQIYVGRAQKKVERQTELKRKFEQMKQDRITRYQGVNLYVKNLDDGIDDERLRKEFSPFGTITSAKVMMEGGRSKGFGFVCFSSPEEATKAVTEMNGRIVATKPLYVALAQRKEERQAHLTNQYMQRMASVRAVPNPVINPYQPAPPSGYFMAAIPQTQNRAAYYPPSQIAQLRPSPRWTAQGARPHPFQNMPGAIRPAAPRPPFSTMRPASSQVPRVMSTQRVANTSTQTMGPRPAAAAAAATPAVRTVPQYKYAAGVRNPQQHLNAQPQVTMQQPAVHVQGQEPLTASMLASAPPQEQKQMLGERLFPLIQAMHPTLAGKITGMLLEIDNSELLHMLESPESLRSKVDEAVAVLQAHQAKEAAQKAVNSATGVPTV
# HIV Env fusion: blocks HIV Env-driven cell-cell fusion | HeLa-JRFL Env/CEM21 cell fusion, luciferase | inhibition, % at 12.3 µM | 360,000 tested, 1.1% active | AID 651610;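 active = mean replicate inhibition score of at least 50 and every replicate individually at or above 50; inconclusive = only one of the two criteria met; inactive = mean below 50 and not all replicates reaching 50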;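 also: 0% = plate neutral controls and 100% = maraviroc near 300 nM; one replicate is shown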
# MT1-MMP act inh: MT1-MMP (human) activation inhibition; P50281; HT1080 RFP-PRO-GFP cells, GFP/RFP ratio fluorescence, overnight; percent of plate control window, DMSO zero; GFP/RFP ratio change, % at 20 µM; 360,000 tested, 0.061% active; AID 651647;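 active = GFP/RFP ratio change of at least 30% with cell ATP level not reduced by more than half and red fluorescence within 50% of control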; also: strong numbers were not always called active
#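 Assay system – RFP-PRO-GFP reporter HT1080 cells · Compound dosing – single dose of 20 µM compound, 1% DMSO final · Incubation – overnight compound exposure at 37 °C · Measure – GFP/RFP fluorescence ratio · Benchmarks – DMSO wells and RFP-L50D-GFP cells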
# eIF4H inh: inhibitors of RNA binding by human eIF4H; eIF4H fluorescence polarization binding assay; inhibition, % at 35 µM; 290,000 tested, 0.94% active;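 active = 50% or more with normal probe brightness, or confirmed in later tests; inconclusive = above 50% with abnormal brightness, or retests that disagree; inactive = below 50% or failed in later tests; about a fifth of its hits are not listed in these tables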;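 also: calls also rest on retests at 20 µM and on dose response follow-up; 0% = protein and probe with vehicle and 100% = probe without protein; strong numbers were not always called active; many hits fall short of the cut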
# CSC inhib: cancer stem cell inhibition | cancer stem cell-like cells viability, luminescence | inhibition, % at 7.5 µM | 300,000 tested, 1.1% active | AID 2717;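 active = mean at 75% or more and at least half the replicates too; inconclusive = mean and replicates disagree; tested in HMLE shEcad cells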;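 also: 0% = median of negative and 100% = median of positive control wells; the first replicate is given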
# Rce1 inh: yeast Ras-converting enzyme inhibition | Q03530 | calls only | AID 2563 | 290,000 tested, 0.27% active | yeast membranes, quenched prenylated peptide cleavage fluorescence;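 active = fall in fluorescence gain of 50% or more versus controls, with final raw signal at or below 3038400; inconclusive = same 50% fall but final raw signal above 3038400; inactive = fall in fluorescence gain under 50%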;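 also: plate controls were neutral control wells for no effect and wells lacking membranes for full effect; tested at 10 µM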
# Target sequence (Q03530 whole entry, looked up): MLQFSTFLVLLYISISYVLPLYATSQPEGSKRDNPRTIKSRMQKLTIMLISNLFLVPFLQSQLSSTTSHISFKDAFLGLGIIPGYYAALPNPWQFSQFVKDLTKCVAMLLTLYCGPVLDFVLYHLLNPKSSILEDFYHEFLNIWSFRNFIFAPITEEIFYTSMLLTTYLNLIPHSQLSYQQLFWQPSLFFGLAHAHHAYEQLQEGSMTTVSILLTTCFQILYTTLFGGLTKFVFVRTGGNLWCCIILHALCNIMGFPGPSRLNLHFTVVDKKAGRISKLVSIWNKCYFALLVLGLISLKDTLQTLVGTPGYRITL
# eIF4H inh retest: further read-out of eIF4H inh, marked with its call; inhibition, %; compound at 20 µM; confirmation average;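 mean of two retest wells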
# PABP polyA inh retest: second read-out of PABP polyA inh, no call of its own (marks repeat the call); inhibition, %; compound at 20 µM; confirmation repeats;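 mean of two retest wells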
# MT1-MMP act inh RFP: second read-out of MT1-MMP act inh, no call of its own (marks repeat the call); RFP signal change, %; measured here: RFP expression control read;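 0 = vehicle wells; hits needed this value within 50% of zero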
# Active calls of the source: *; i = inactive; ? = inconclusive; nt = not tested or not shown. Only part of the results is shown. The share of hits here may be higher or lower than overall.
SMILES,Yeast UUG start,PABP polyA inh,HIV Env fusion,MT1-MMP act inh,MT1-MMP act inh RFP,eIF4H inh,CSC inhib,Rce1 inh,others
NC(=O)c1ccc(-n2c(CCC(=O)O)ccc2-c2cccs2)cc1,nt,2,-5,-3,1,13,-10,i,
CCc1cc2c(=O)c(-c3nc4ccccc4n3C)coc2c(CN2CCCCC2)c1O,-1,3,6,2,4,-3,nt,i,
COc1ccc(-n2nc3c(c2NC(=O)c2c(F)cccc2Cl)CS(=O)C3)cc1 (configuration not stated),-19,-8,2,-1,0,3,-6,i,
Cc1cccc(OCCNc2nc3c(c(=O)n(C)c(=O)n3C)n2C)c1,-7,-4,nt,4,-11,1,0,i,
Cc1ccc(Cl)c(OCC(O)CN(CCO)CCO)c1 (configuration not stated),-14,1,nt,0,2,-3,9,i,
CCOC(=O)c1sc(Nc2ccc(Br)cc2)nc1C,nt,-1,11,-3,-6,-3,45,i,
CC1(C(=O)Nc2cccc(OC(F)(F)F)c2)Cc2c(-c3ccc4c(c3)OCO4)ccnc2O1 (configuration not stated),-11,nt,20,-6,-9,nt,nt,nt,
COC(=O)C(C)Sc1ccc2nnc(CCNS(=O)(=O)c3ccc(C)cc3)n2n1 (configuration not stated),nt,-6,15,2,5,-8,nt,i,
CC(O)[C@H]1CN=C(N)N1CC(C)(C)C (some centres not stated),-10,nt,1,2,2,nt,-8,i,
COc1ccc(-c2nnc(NC(=O)CSc3ccc(Cl)cc3)s2)cc1OC,nt,1,11,37*,1.1*,-5,-12,i,
CCOC(=O)C(NCc1ccccc1)(NC(=O)c1ccccc1)C(F)(F)F (configuration not stated),-15,7,-11,2,3,-4,-5,i,
O=C(Nc1ccc(F)cc1F)c1ccc2c(c1)OCCO2,-44,-2,-23,3,6,-5,nt,i,
COc1cccc(N=C2NC(=O)/C(=C/c3cc([N+](=O)[O-])ccc3O)S2)c1,-13,51,-22,-36,9,66,11,i,eIF4H inh retest=46;PABP polyA inh retest=24
CC1(C)c2ccccc2N2CC(=O)N[C@@]21/C=C/C=C/c1ccccc1,nt,-7,20,-8,-6,2,13,i,
CC(=O)N1CCN(CC(=O)Nc2ccc(SC(F)F)cc2)CC1,-8,3,-16,-1,4,-2,6,i,

# Next part, overlapping the part above by 3 compounds.
SMILES,Yeast UUG start,PABP polyA inh,HIV Env fusion,MT1-MMP act inh,MT1-MMP act inh RFP,eIF4H inh,CSC inhib,Rce1 inh,others
COc1cccc(N=C2NC(=O)/C(=C/c3cc([N+](=O)[O-])ccc3O)S2)c1,-13,51,-22,-36,9,66,11,i,eIF4H inh retest=46;PABP polyA inh retest=24
CC1(C)c2ccccc2N2CC(=O)N[C@@]21/C=C/C=C/c1ccccc1,nt,-7,20,-8,-6,2,13,i,
CC(=O)N1CCN(CC(=O)Nc2ccc(SC(F)F)cc2)CC1,-8,3,-16,-1,4,-2,6,i,
COC(=O)C1=C2SC(C)C(=O)N2C(N)=C(C#N)C1c1cc(OC)c(OC)c(OC)c1 (configuration not stated),-5,1,nt,-2,4,-1,-1,i,
CC(C)Oc1ccc(CN2CCCC(CO)(Cc3ccccc3)C2)cc1CO (configuration not stated),-2,-4,-3,2,1,4,2,i,
Nc1nc(SCC(=O)Nc2ccccc2Sc2ccc(Cl)cc2)n[nH]1,-31,-11,59,0,-9,2,-12,nt,
Cc1cccc(-c2nc(CN3CCN(Cc4cccc(F)c4)CC3)c(C)o2)c1,-5,11,5,-3,-3,16,-13,i,
O=C(/C=C/c1ccccc1)OCc1cncs1,22,-7,-5,2,1,0,-3,i,
COC(=O)COc1ccccc1/C=C1/NC(=O)NC1=O,-3,2,4,1,3,-4,nt,i,
O=C(CNC(=O)Cc1ccccc1)NCC(=O)OCC(=O)c1ccc(F)cc1,-7,1,0,1,3,-2,4,i,
O=C(NCC(c1ccco1)N1CCc2ccccc21)c1ccccc1Br (configuration not stated),2,nt,0,-6,-4,nt,6,i,
COc1cc(CNc2ccc(CNc3ncn[nH]3)cc2)ccc1OCc1ccccc1,nt,2,nt,-4,-14,1,90*,i,
Cc1ccc(S(=O)(=O)NC(=O)Nc2c(C)cccc2C)cc1,-8,7,-16,2,6,0,-6,nt,
COc1ccc(S(=O)(=O)n2ccc(C)n2)cc1C,-16,5,nt,3,-2,4,1,i,
CCCCN(C(=O)CSc1nnc(-c2ccc(OC)cc2)n1C(C)C)c1c(N)n(Cc2ccccc2)c(=O)[nH]c1=O,nt,-3,2,5,-5,-4,-2,i,
COc1ccc(OC)c(C(c2nnnn2CC2CCCO2)N2CCN(C3CCCC3)CC2)c1 (configuration not stated),-15,2,nt,-5,-5,-15,-7,i,
CCOC(=O)C1CCN(c2ncnc3c2cnn3-c2ccccc2)CC1,-1,-2,-25,10,11,11,-6,i,
CCCC(c1nnnn1C1CCCC1)N1CCN(C(=O)c2ccco2)CC1 (configuration not stated),-9,15,nt,2,1,-1,-7,i,

# Ordered by heavy-atom count (ascending): some entries from above
SMILES,Yeast UUG start,PABP polyA inh,HIV Env fusion,MT1-MMP act inh,MT1-MMP act inh RFP,eIF4H inh,CSC inhib,Rce1 inh,others
COC(=O)COc1ccccc1/C=C1/NC(=O)NC1=O,-3,2,4,1,3,-4,nt,i,
CCCC(c1nnnn1C1CCCC1)N1CCN(C(=O)c2ccco2)CC1 (configuration not stated),-9,15,nt,2,1,-1,-7,i,
CC(C)Oc1ccc(CN2CCCC(CO)(Cc3ccccc3)C2)cc1CO (configuration not stated),-2,-4,-3,2,1,4,2,i,
CCCCN(C(=O)CSc1nnc(-c2ccc(OC)cc2)n1C(C)C)c1c(N)n(Cc2ccccc2)c(=O)[nH]c1=O,nt,-3,2,5,-5,-4,-2,i,

# Carrying on.
SMILES,Yeast UUG start,PABP polyA inh,HIV Env fusion,MT1-MMP act inh,MT1-MMP act inh RFP,eIF4H inh,CSC inhib,Rce1 inh,others
Cc1ccc(C)c(NC(=O)CN(C)C(=O)c2nn(C)c(=O)c3ccccc23)c1,nt,-9,-4,2,0,-6,-13,i,
CCCCCCCN1CCN=C1Nc1ccccc1,-9,nt,6,6,5,nt,5,nt,
COc1cc(CN2CCCC(CCC(=O)NCc3ccc(C)o3)C2)cc2c1OCO2 (configuration not stated),2,-4,5,1,4,3,7,i,
C=CCn1c(=O)c2c(nc3n2CCCN3CCc2ccc(OC)c(OC)c2)n(C)c1=O,-12,4,7,-3,-3,3,-3,i,
Cc1ccc(C2CC(=O)C(C=NCCN3CCN(C(=S)Nc4ccccc4)CC3)=C(O)C2)cc1 (configuration not stated),1,24,13,3,2,5,-6,i,
Cc1ccc(S(=O)(=O)NC(=O)NCc2ccc(Cl)cc2)cc1,-9,-7,-64,-1,-12,-5,3,i,
CCc1nnc(NC(=O)CSc2nnc(-c3ccoc3C)n2-c2cccc(C)c2)s1,-24,-7,-46,1,2,-3,-6,i,
COC(=O)c1cc2c(cc1NC(=O)CSCCc1ccccn1)OCO2,nt,10,nt,-1,0,23,-7,i,
Nc1nc2ccc(C(=O)Nc3ccccc3)cc2s1,-8,-6,nt,nt,nt,-1,-9,i,
COc1ccc(C=O)cc1COc1ccccc1F,1,-10,20,-5,-3,-3,17,i,
COC1CCCCC1NS(=O)(=O)c1ccc(Cl)cc1 (configuration not stated),-8,10,-9,1,2,2,-9,i,
COc1ccc(NC(=O)CN(C)C(=O)c2cc3c(s2)CCC(C)C3)cc1 (configuration not stated),-20,-2,nt,2,3,-8,nt,i,
CCc1ccc(N2CC(C(=O)N3CCN(c4ccccn4)CC3)CC2=O)cc1 (configuration not stated),18,nt,3,1,1,nt,-1,i,
CCOc1ccccc1NC(=O)c1ccc(S(=O)(=O)N2CCOCC2)cc1,-12,-1,nt,0,1,6,-20,i,
O=Cc1c[nH]c2ccc(S(=O)(=O)N3CCOCC3)cc12,nt,2,nt,-4,2,-8,nt,i,
O=C(O)COc1ccc(/C=N/NC(=O)C2CCCN2S(=O)(=O)c2ccc(Cl)cc2)cc1 (configuration not stated),5,20,nt,-10,-4,-8,-7,i,
O=S(=O)(c1ccc(Cl)s1)N1CCN(C/C=C/c2ccccc2)CC1,1,19,2,-7,-10,-7,12,i,
COc1cccc(CN2CCNC(=O)C2CC(=O)N(C)C2CCOCC2)c1 (configuration not stated),-22,1,12,2,2,-9,29,i,
CCCCn1c(N)c(N(CCC(C)C)C(=O)CC2CCCCC2)c(=O)[nH]c1=O,-15,nt,3,-13,-4,nt,-4,i,
CCCC(=O)C1=C(O)C(C(=O)OC)C(C)(C)CC1=NCCc1ccc(OC)c(OC)c1 (configuration not stated),11,1,27,-2,-1,0,10,i,
COC(=O)C1CCN(c2cc(Cl)nc(N)n2)CC1,29,?,-5,2,3,3,-18,i,
Cc1cc(C)c(NC(=O)CNC(=O)COC(=O)CNC(=O)c2ccc(Cl)cc2Cl)c(C)c1,-8,nt,-52,7,-6,nt,10,i,
Cc1ccccc1C(=O)OCC(=O)Nc1cccc(S(=O)(=O)NC2=NCCC2)c1,-11,nt,nt,1,-4,nt,14,nt,
COc1cccc2[nH]c(C(=O)NCCc3ccccc3)cc12,-7,-3,-48,1,1,-12,4,i,
CCOCc1c(C(=O)N2CCN(CC(=O)Nc3ccc(F)cc3)CC2)oc2ccccc12,0,nt,-34,-1,-7,nt,nt,nt,
COc1ccc(CNC(=O)COC(=O)CN2C(=O)C3CC=CCC3C2=O)cc1 (configuration not stated),-1,nt,22,-8,1,nt,-13,nt,
O=S(=O)(c1cccc(-c2nnc(-c3cccnc3)o2)c1)N1CCCCC1,-2,5,25,2,-1,8,-15,nt,
O=C(COc1ccccc1)Nc1ccc(Cl)c(-c2nc3ncccc3o2)c1,-15,-6,-20,-9,-15,-2,-7,nt,
N#Cc1ccccc1NS(=O)(=O)c1cc2c3c(c1)CCC(=O)N3CCC2,-7,nt,-6,4,4,nt,nt,i,
CCOC(=O)c1ccc(NC(=O)CC2Sc3ncnn3C2=O)cc1 (configuration not stated),nt,-12,2,4,8,-2,9,nt,
Cc1ccc(S(=O)(=O)N2CCC(=O)N(C(COCc3cccc(C)c3)Cc3ccccc3)CC2)cc1 (configuration not stated),-11,65,12,-3,-10,-2,17,i,eIF4H inh retest=-4;PABP polyA inh retest=14
O=C(CCCn1ncn2c(cc3occc32)c1=O)N1CCc2ccccc2C1,-24,-2,nt,1,-1,6,-4,i,
O=C(NCN1CCN(CCO)CC1)c1cnccn1,nt,-7,-4,3,5,-8,-13,i,
COC(=O)C1CCN(C(=O)COc2cc3sc(C)nc3c3sccc23)CC1,-2,2,29,2,-6,5,-18,i,

# Screening results deposited in PubChem BioAssay by several laboratories.
